LANA-H2B inh – blocks KSHV LANA binding to histone H2A/H2B; Q9QR71; cell-free LANA-H2A/H2B peptide, fluorescence polarization; inhibition, % (concentration not given with the values); 320,000 tested, 0.6% active; in the data active = inhibition mostly above about 10%, no sharp cut-off; inactive = mostly below about 6.7%;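 also: stock transfer was 7.5 nL into about 10 µL; 0% = median of vehicle wells and 100% = median of positive control wells; one replicate is shown; the record names a cut of 25% in any replicate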
B2AR ag – human beta-2 adrenergic receptor agonism by FAP; P07550; Am2.2-beta2AR cells, FAP receptor internalization, flow cytometry; reference of the scale not given here; response, % (test concentration not listed); 340,000 tested, 0.43% active; AID 504454;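 active = response above a set limit, near 3 SD of response in nonfluorescent compounds, cut at about 42% in these data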;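 also: stock transfer was 100 nL into about 11 µL; a reference agonist was the positive control; negative values mostly stem from fluorescent compounds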
Target sequence (P07550 whole entry, looked up): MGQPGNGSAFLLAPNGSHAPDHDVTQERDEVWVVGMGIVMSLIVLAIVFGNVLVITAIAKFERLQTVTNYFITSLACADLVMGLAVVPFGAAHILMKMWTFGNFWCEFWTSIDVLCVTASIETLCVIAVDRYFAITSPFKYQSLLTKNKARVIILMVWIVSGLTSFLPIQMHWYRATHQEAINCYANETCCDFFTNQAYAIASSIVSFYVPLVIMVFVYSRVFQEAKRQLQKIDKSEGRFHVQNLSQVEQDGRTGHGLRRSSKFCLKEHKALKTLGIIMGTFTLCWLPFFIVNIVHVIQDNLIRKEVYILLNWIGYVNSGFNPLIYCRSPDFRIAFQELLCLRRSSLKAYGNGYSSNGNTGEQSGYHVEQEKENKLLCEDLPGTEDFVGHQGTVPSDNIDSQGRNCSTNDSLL
rRNA inh HTS – inhibitors of bacterial rRNA selective over humanized ribosomes; 350,000 tested, 1.6% active; E. coli WT GFP vs humanized-ribosome RFP mutants, fluorescence, 24 h; stronger effect = lower value; DMSO median 0, no signal -100; GFP signal change (wild-type ribosome), % (test concentration not listed);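 active = significant combined selectivity score with lowered wild-type GFP, culture density cut under 30%, mutant RFP and density less affected; inactive = any of these conditions unmet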; also: one replicate is shown; some compounds called inactive have numbers as strong as hits
Bfl-1 A1 inh – inhibitors of the anti-apoptotic protein A1, read as caspase activation; MEF A1-2A-BIM cells, Caspase-Glo 3/7 luminescence, 3 h; percent of clofoctol response, vehicle zero; 330,000 tested, 0.066% active; caspase activation, % (no concentration beside the values); AID 2462;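 active = over half of replicate activation scores above 10%, or exactly half above 10 with the replicate mean above 10; inconclusive = replicate mean below 10 yet half the replicates above 10; inactive = over half of replicates below 10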;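 also: wells of about 30 µL received 50 nL stock; many hits fall short of the cut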
Calb FLC – C. albicans growth modulation with fluconazole | 300,000 tested, 0.57% active | AID 1979 | C. albicans CaCi-2 (fluconazole-resistant clinical isolate) + fluconazole, Alamar Blue growth, 48 h | growth inhibition, % (test concentration not listed);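 active = most replicates above 75%; inconclusive = exactly half above 75%; inactive = most below 75%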;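 also: all wells also contain fluconazole at 8 µg/ml as a sub-toxic cotreatment; 0% = median of DMSO wells and 100% = median of geldanamycin control wells; wells of about 8 µL received 7.5 nL stock; the first replicate is given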
Beta apoptosis – blocks beta cell apoptosis; INS-1E cytokine-induced death, ATP luminescence, 48 h; percent of positive-control rescue, neutral wells zero; protection from apoptosis, % (concentration not given with the values); 300,000 tested, 0.8% active; AID 435005;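 active = all replicates at 75% or more, or half of them and the mean; inconclusive = half reach 75% but not the mean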;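 also: 0% = cytokine-treated negative control wells and 100% = positive control rescue; higher means more ATP so stronger rescue from cytokine killing; wells of about 40 µL received 100 nL stock; the first replicate is given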
ALR H2O2 inh – human ALR oxidase inhibition via reduced H2O2; P55789; purified ALR, DTT oxidation, H2O2 HRP-luminol luminescence; inhibition, % (concentration not given with the values); 290,000 tested, 3.8% active; AID 485317;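 active = mean and each replicate at 75% or more; inconclusive = only one of the two met; inactive = neither met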;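 also: stock transfer was 7.5 nL into about 7.5 µL; 0% = neutral wells and 100% = wells with inactivated enzyme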
Target sequence (P55789 whole entry, looked up): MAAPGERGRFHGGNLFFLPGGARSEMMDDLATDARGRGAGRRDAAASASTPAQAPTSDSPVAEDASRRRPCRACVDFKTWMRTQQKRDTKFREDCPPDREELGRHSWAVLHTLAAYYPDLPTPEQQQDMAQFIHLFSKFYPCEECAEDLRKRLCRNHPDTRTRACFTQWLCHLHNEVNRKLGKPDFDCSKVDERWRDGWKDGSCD
T cruzi repl – blocks replication of Trypanosoma cruzi; T. cruzi beta-gal in NIH3T3, luminescence, 90 h; inhibition, % (test concentration not listed); 300,000 tested, 1.4% active; AID 1885;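 active = mean inhibition across valid replicates above about 55%, limit read from the data; inconclusive = mean below that limit but half or more replicates reach it; inactive = mean below it, under half of replicates reach it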;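 also: signal also drops with host cell toxicity which is not excluded here; 0% = plate median of DMSO wells and 100% = zero luminescence signal; higher percent means less beta-gal luminescence so fewer parasites; stock transfer was 50 nL into about 50 µL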
rRNA inh HTS OD600 – also measured in rRNA inh HTS; calls as there; OD600 change, %; measured here: OD600 growth;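 optical density of the mix in the first replicate; 0 = DMSO median and -100 = no signal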
rRNA inh HTS RFP – further read-out of rRNA inh HTS, marked with its call; RFP signal change, %; measured here: RFP humanized mutant strains;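 first replicate; 0 = DMSO median and -100 = no signal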
Active calls of the source: *; ? = inconclusive; . = not tested or not shown. The list is partial (hit frequency here may not be typical).

SMILES | LANA-H2B inh | B2AR ag | rRNA inh HTS | rRNA inh HTS OD600 | rRNA inh HTS RFP | Bfl-1 A1 inh | Calb FLC | Beta apoptosis | ALR H2O2 inh | T cruzi repl
CC(=O)NC(C)(C)C1CC=C(C)/C(=N\O)C1 (centres undefined) | 0.5 | -3 | . | . | . | 0.0 | -8 | 1 | -12 | -17
C/C=C(/C)C(=O)O[C@@H]1c2cc3c(c(OC)c2-c2c(cc(OC)c(OC)c2OC)[C@@H](OC(C)=O)[C@@H](C)[C@H]1C)OCO3 | 1.8 | 5 | . | . | . | 1.1 | -5 | -1 | -11 | 12
Cc1cc(C)c(O)c(-c2cc(C(=O)Nc3ccc(S(=O)(=O)N4CCOCC4)cc3)[nH]n2)c1 | -2.1 | 36 | . | . | . | 2.2 | -11 | . | . | 2
COc1ccc(OC)c(NC(=O)CSc2nccn2Cc2ccco2)c1 | 2.6 | 7 | 1 | -5 | 1.4 | -0.2 | 7 | -5 | -12 | -2
CCOC(=O)N1CCC(N(CCN(C)C)C(=S)Nc2cccc(C)c2)CC1 | 3.2 | -1 | 16 | 13 | 0.7 | 0.3 | -1 | 2 | -1 | -63
Cc1oc(-c2ccccc2Cl)nc1CSc1nc2c(c(=O)[nH]1)CCCC2 | 2.7 | -10 | 6 | 5 | 1.0 | -0.3 | -4 | -8 | 43 | 12
COC(=O)c1cc2cc(Cl)ccc2nc1SC | -5.4 | 7 | 13 | -2 | -1.1 | 0.0 | -14 | -1 | 0 | -3
O=C1CC(=O)Nc2cc(S(=O)(=O)N3CCN(c4cccc(C(F)(F)F)c4)CC3)ccc2N1 | 1.4 | -23 | 6 | 3 | 2.7 | 1.5 | 15 | 3 | . | 13
CN(C(=O)CN1C(=O)c2ccc([N+](=O)[O-])cc2C1=O)C1CCCCC1 | 1.4 | -16 | -3 | 8 | 0.2 | ? | . | -1 | . | .
O=C(CN(C(=O)c1ccc(Cl)cc1Cl)N1C(=O)C2C3C=CC(C3)C2C1=O)c1ccc(F)cc1 (centres undefined) | -1.1 | 1 | . | . | . | -0.3 | -1 | 7 | -7 | 3
O=C(COC(=O)CCc1ccccc1)NNC(=O)c1ccccc1 | 5.9 | 2 | 4 | 18 | -1.1 | 0.5 | . | -5 | -2 | .
CC12CCC(=O)N1C(C(=O)Nc1cc(Cl)ccc1N1CCCC1)CS2 (centres undefined) | 4.3 | -1 | -10 | -19 | -0.9 | -0.1 | . | 0 | 86* | .
C/C(=N\Nc1cccc(Cl)c1)c1ccncc1 | -0.5 | -3 | -54 | -77 | -18 | -1.0 | -34 | -3 | 99* | 59*
Cn1ccc(=S)c2ccccc21 | -3.8 | -1 | 18 | 15 | 1.1 | 0.7 | -9 | -3 | -14 | -3
COc1cccc(-n2nnnc2SCC(=O)Nc2ccc(OC)cc2OC)c1 | 2.5 | 0 | 11 | 7 | -2.3 | 0.1 | 9 | 5 | 19 | 15
CCOc1ccc(N2C(=O)CC(N(C)Cc3ccccc3)C2=O)cc1 (centres undefined) | 2.9 | 9 | 14 | 9 | -3.8 | -0.8 | 0 | 0 | -3 | -4
Cc1ccccc1N1CC(C(=O)Nc2nnc(SCCN3CCOCC3)s2)CC1=O (centres undefined) | 8.0 | -1 | 13 | 20 | 2.0 | -0.1 | 0 | 9 | -8 | -13
CCOc1ccc(CNC(=O)C2CCN(c3nnc(C)c4c(C)n(-c5ccc(C)cc5)nc34)CC2)cc1 | 0.3 | 55* | 14 | 11 | 4.6 | -0.2 | -15 | 24 | -13 | 27
Clc1ccc(OCCSc2ncccn2)cc1 | 0.7 | 0 | . | . | . | -2.1 | -28 | 4 | 11 | -3
CN(CC(=O)NCc1ccncc1)S(=O)(=O)c1ccc(Cl)cc1 | -1.8 | -5 | 4 | 1 | -6.3 | 0.7 | 5 | -5 | -3 | -3

Given tab-delimited: entries from further up.
molecule	LANA-H2B inh	B2AR ag	rRNA inh HTS	rRNA inh HTS OD600	rRNA inh HTS RFP	Bfl-1 A1 inh	Calb FLC	Beta apoptosis	ALR H2O2 inh	T cruzi repl
CCOc1ccc(N2C(=O)CC(N(C)Cc3ccccc3)C2=O)cc1 (centres undefined)	2.9	9	14	9	-3.8	-0.8	0	0	-3	-4
Cc1ccccc1N1CC(C(=O)Nc2nnc(SCCN3CCOCC3)s2)CC1=O (centres undefined)	8.0	-1	13	20	2.0	-0.1	0	9	-8	-13
CCOc1ccc(CNC(=O)C2CCN(c3nnc(C)c4c(C)n(-c5ccc(C)cc5)nc34)CC2)cc1	0.3	55*	14	11	4.6	-0.2	-15	24	-13	27
Clc1ccc(OCCSc2ncccn2)cc1	0.7	0	.	.	.	-2.1	-28	4	11	-3

(continued)
SMILES | LANA-H2B inh | B2AR ag | rRNA inh HTS | rRNA inh HTS OD600 | rRNA inh HTS RFP | Bfl-1 A1 inh | Calb FLC | Beta apoptosis | ALR H2O2 inh | T cruzi repl
CC(C(=O)OCC(=O)Nc1cccc(S(=O)(=O)N(C)C)c1)N1C(=O)c2ccccc2C1=O (centres undefined) | . | 7 | 1 | 0 | 0.6 | 1.2 | 2 | -11 | . | -13
COC(=O)c1c(NC(=O)CN2CCC(C(N)=O)CC2)c2c(C)cccc2n1C | -4.2 | -2 | . | . | . | 0.1 | 8 | -1 | -1 | -7
O=C(CC1Nc2ccccc2NC1=O)NCC1COc2ccccc2O1 (centres undefined) | -9.0 | 6 | . | . | . | 0.4 | -2 | -18 | . | -10
Cc1ccc(S(=O)(=O)NNC(=S)Nc2cccc(F)c2)cc1 | -1.8 | 3 | -16 | -10 | -2.7 | 2.1 | 6 | -4 | 99* | .
COc1ccc(NC(=O)OCCN2CCN(Cc3ccccc3)CCC2=O)cc1 | -1.7 | -2 | -6 | 1 | 3.1 | -0.6 | -4 | 1 | -35 | -20
COc1ccccc1N1CCN(C(=O)c2sc3ncn(CC(=O)N4CCC(C)CC4)c(=O)c3c2C)CC1 | -0.6 | -4 | -26 | -34 | -3.5 | 0.7 | -5 | 0 | 6 | -15
COc1ccccc1C(=O)N/N=C/c1ccc2c(c1)OCO2 | -4.5 | 4 | -2 | 14 | 1.6 | -0.1 | -2 | 20 | -5 | -6
O=C(CN1/C(=C(/O)c2ccccc2)C(=O)c2ccccc2S1(=O)=O)c1ccccc1 | 12 | -3 | . | . | . | 1.6 | -2 | 2 | 19 | 12
C/C(=N/NC(=O)CSc1nc2ccccc2n1C)c1ccco1 | 0.5 | -12 | 1 | -8 | -1.6 | -0.4 | 2 | 2 | -1 | -3
COC(=O)C1CSc2[nH]c(=O)sc2C1c1ccc(O)c(OC)c1 (centres undefined) | 1.4 | -4 | . | . | . | 0.2 | 3 | 1 | 73 | -15
Cc1noc(C)c1S(=O)(=O)N(C)C[C@H]1Oc2ccc(NC(=O)NC3CCCCC3)cc2C(=O)N([C@H](C)CO)C[C@@H]1C | 6.2 | 9 | 6 | 4 | 1.0 | 0.1 | . | -1 | 1 | .
CS(=O)(=O)N(CC(=O)NC1CCCCC1)c1cccc(F)c1 | -8.6 | -5 | 10 | 5 | 3.2 | 0.4 | -8 | 2 | -8 | 3
N/C(=N\N=C\c1ccc(Br)o1)c1nonc1N | -2.0 | -2 | 3 | 3 | 13 | 0.3 | -4 | 12 | 1 | -4
O=S(=O)(c1ccccc1)N1CCc2ccccc2C1 | -3.6 | -6 | 2 | -2 | 0.6 | -0.2 | -13 | -6 | -2 | -2
OC(CN1CC=C(/C=C/c2ccc(Br)cc2)CC1)c1ccccc1 (centres undefined) | -3.3 | 8 | -5 | -1 | 1.9 | -0.7 | 4 | 4 | 1 | -1
OCC(O)CNC(=S)NC1CCCCC1 (centres undefined) | 0.6 | 0 | 13 | 8 | 0.1 | 0.9 | 6 | -3 | 2 | -12
O=C(Nc1ccc(S(=O)(=O)NCC2CCCO2)cc1)C1CC(=O)N(c2ccccc2)C1 (centres undefined) | -2.7 | -1 | 7 | 10 | 0.0 | 0.0 | 5 | . | -1 | 5
CCCNC(=S)N1CCC(NC(=O)c2ccc(OC)cc2)CC1 | -2.4 | 5 | 29 | 14 | 6.2 | 0.4 | 4 | 0 | -11 | -2
COc1ccccc1-n1cc(C(=O)N2CCCC(CO)(Cc3ccccc3C)C2)cn1 (centres undefined) | 5.6 | 18 | -32 | -40 | -4.5 | -1.0 | -12 | -4 | 3 | 14
COc1cc(C(=O)NCC(=O)OCc2cc(=O)oc3c(C)c(C)ccc23)cc(OC)c1OC | 1.6 | 3 | 3 | 5 | 0.2 | -0.3 | -15 | 7 | 1 | -8

Single records, as listed above. Order of screens: LANA-H2B inh | B2AR ag | rRNA inh HTS | rRNA inh HTS OD600 | rRNA inh HTS RFP | Bfl-1 A1 inh | Calb FLC | Beta apoptosis | ALR H2O2 inh | T cruzi repl
`CS(=O)(=O)N(CC(=O)NC1CCCCC1)c1cccc(F)c1` is entered as -8.6 | -5 | 10 | 5 | 3.2 | 0.4 | -8 | 2 | -8 | 3
`COc1ccccc1-n1cc(C(=O)N2CCCC(CO)(Cc3ccccc3C)C2)cn1` (centres undefined) is entered as 5.6 | 18 | -32 | -40 | -4.5 | -1.0 | -12 | -4 | 3 | 14

Additional compounds
SMILES | LANA-H2B inh | B2AR ag | rRNA inh HTS | rRNA inh HTS OD600 | rRNA inh HTS RFP | Bfl-1 A1 inh | Calb FLC | Beta apoptosis | ALR H2O2 inh | T cruzi repl
O=C(COC(=O)C12CC3CC(CC(C3)C1)C2)NCc1ccccc1 | -3.6 | -10 | -5 | -38 | -9.1 | 1.5 | . | -2 | 1 | .
CC(=O)Nc1ccc(S(=O)(=O)NCc2csc(-c3cccnc3)n2)cc1 | 1.0 | 1 | . | . | . | 0.2 | . | -9 | -10 | 3
Cc1cccn2c(NC(=O)c3ccccc3F)c(-c3ccccc3)nc12 | -4.3 | -7 | -10 | -3 | 0.1 | 0.1 | 2 | 0 | 5 | -12
CCn1cc(C(=O)O)c(=O)c2cc(F)c(N3CCN(C(=S)NC(=O)c4cccc(F)c4)CC3)cc21 | -0.5 | 1 | -57 | -81 | -26 | -0.5 | -5 | 1 | . | -9
CCOc1ccc2c(c1)C(c1ccccc1)=NNC(c1ccccc1)=N2 | 0.0 | -6 | . | . | . | 0.7 | -1 | -4 | 5 | 10
Cn1c(=O)n(C)c2cc([N+](=O)[O-])c(N3CCN(S(C)(=O)=O)CC3)cc21 | 0.6 | -26 | . | . | . | 0.5 | 3 | 6 | 3 | 2
C=CCNC(=S)N/N=C/c1ccc(C)cc1C | -3.6 | 2 | -17* | 0.4* | 4.6* | -0.2 | -6 | 6 | 45 | -16
CC(C)(C)c1cc(-c2csc(Nc3ccccc3)[n+]2Cc2ccc(C(=O)O)cc2)cc(C(C)(C)C)c1O | 0.0 | 30 | . | . | . | -3.8 | ? | 6 | 73 | -17
O=C(CN1C(=O)NC2(CCCCC2)C1=O)Nc1ccc(Cl)cc1 | 1.5 | -3 | -2 | 11 | -2.0 | 1.0 | . | -6 | 0 | .

From PubChem
